Compound activity (PubChem)
LT uptake inh – qHTS Assay for Anthrax Lethal Toxin Internalization | Cells, anthrax lethal toxin internalization, FRET ratio (460/530) | Potency, µM (top dose mostly 40 µM), for inactives: top-dose activity change, negative = inhibition, usual class: inhibitors | 70,000 compounds, 0.67% hits; active = well fitted falling ratio curve with the 530 nm signal flat; inconclusive = other ratio curves, or a change in one channel alone; inactive = flat curves in the ratio and both channels; the % refers to the ratio; note: % is set by controls: 0 for no effect and ±100 for the full control effect; nearly all actives have a fitted effect of over 50% in size; tested in ME-180 cells; beta-lactamase reporter
SmPrx2 inh – Schistosoma Mansoni Peroxiredoxins (Prx2); AID 448, 2006; 65,000 compounds, 0.07% hits; Schistosoma mansoni peroxiredoxin 2 (Prx2); Potency, µM; S. mansoni Prx2 activity coupled to TGR/GSH (TGR is thioredoxin glutathione reductase), NADPH fluorescence loss, qHTS; some inactives read as strong as hits; active means full or partial inhibition curve with a strong effect at the top dose; inconclusive means weaker partial or single-point curve; inactive means no accepted curve; note: series up to 57 µM; many of its hits are not listed in these tables
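Prx2 inhibition was measured as reduced NADPH consumption when electrons flowed from NADPH through TGR and glutathione to Prx2 and H2O2. Plates were read kinetically over 8 min; enzyme reagents were held at 4 deg C during dispensing.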
An asterisk follows results filed as active; u = inconclusive; x = no result given; & = joins results of further samples; [ ] = remark or other dose. Potency is the fitted concentration of half-maximal effect.

SMILES	LT uptake inh	SmPrx2 inh
CCN(CC)CCn1c(=S)[nH]c2ccc(Cl)cc2c1=O	-19%	>57
O=C(Nc1ccc(N2CCOCC2)cc1)C1CCN(S(=O)(=O)Cc2ccccc2)CC1	2%	>57
Cn1c2c(c3ccccc31)CC/C2=N\O	-7%	x
O=C(c1csnn1)N1CCC[C@@]2(CCN(Cc3ccccc3)C2)C1	u	>57
CCCCn1nnnc1SCC(=O)Nc1cccc(C)n1	11%	>57
Cc1cccc(CNc2cc(-c3c(C)noc3C)ncn2)c1	6%	>57
CCCc1cc(C(=O)Nc2cccc(C(C)=O)c2)no1	-8%	>57
CCOC(=O)Cn1c(CCC(=O)O)ccc1-c1ccc(F)cc1	5%	>57
COc1ccc(N2C(=O)CCC(C(=O)N3CCCCCC3)C2c2ccc(OC)c(OC)c2)cc1 (centres undefined)	4%	>57
CN(C)CCN=Cc1c(O)n(C2CCCCCC2)c(=O)[nH]c1=O	5%	>57
CN(C)c1nc(N)c(C(=O)N=C(N)N)nc1Cl	-1%	>57
CCOc1ccc(CCNS(=O)(=O)c2cccc3nsnc23)cc1OCC	-5%	>57
O=C(CCC1=NS(=O)(=O)c2ccccc2N1)NC1CCCCCCC1	14%	>57
NCCCS(=O)(=O)O	-5%	>57
CCOCC(=O)Nc1ccc(S(=O)(=O)N2CCOCC2)cc1	-17%	>57

The last 4 compounds of the section before open the next one:
SMILES	LT uptake inh	SmPrx2 inh
CCOc1ccc(CCNS(=O)(=O)c2cccc3nsnc23)cc1OCC	-5%	>57
O=C(CCC1=NS(=O)(=O)c2ccccc2N1)NC1CCCCCCC1	14%	>57
NCCCS(=O)(=O)O	-5%	>57
CCOCC(=O)Nc1ccc(S(=O)(=O)N2CCOCC2)cc1	-17%	>57
CCSC1(SCC)N=C(N)C2(C#N)C(c3ccccc3)NC(C)=CC12C#N (centres undefined)	3%	x
CC(C)N1CCC2(CC1)NC(CO)(CO)CO2	-7%	x
Cc1cc(=O)n2[nH]c(-c3ccccc3)cc2n1	-17%	>57
Cc1cc(NS(=O)(=O)Cc2ccccc2)no1	6%	>57
O=C(CSc1ncccc1C(=O)O)NCc1ccc(F)cc1	-8%	>57
O=C1C(c2ccccn2)=[N+]([O-])c2ccccc21	u	>57
CCCCC(=O)Nc1ccc(NC(=O)C2CC2)cn1	-26%	>57
CCc1c(C)c2ccc(OCC(=O)OC(C)C)c(C)c2oc1=O	u	>57
O=S(=O)(c1cc(C(F)(F)F)ccc1Cl)N1CCCCCC1	-3%	>57
CC(C)c1c(O)nc(SCC(=O)Nc2ccc3c(c2)CCC3)[nH]c1=O	u	>57
c1ccc(N2CCN(c3nc4cc5c(cc4s3)OCO5)CC2)cc1	11%	>57
COC(=O)C(C#N)C(c1cccnc1)c1c(C)[nH][nH]c1=O (centres undefined)	-14%	>57
O=C(NCC(=O)N(c1ccc2c(c1)OCO2)C(C(=O)NC1CCCC1)c1cccs1)c1ccco1 (centres undefined)	-9%	>57
O=C(CN1CCCCC1)N1CCN(C(=O)CN2CCCCC2)CC1	-3%	x
COc1cccc(CN2CCN(C(=O)c3cccs3)CC2)c1OC	-11%	x

Some of the entries so far, with two lines to a compound:
The line under a structure holds: LT uptake inh | SmPrx2 inh
> Cc1cc(NS(=O)(=O)Cc2ccccc2)no1
  6% | >57
> O=C(CSc1ncccc1C(=O)O)NCc1ccc(F)cc1
  -8% | >57
> O=C1C(c2ccccn2)=[N+]([O-])c2ccccc21
  u | >57
> CCCCC(=O)Nc1ccc(NC(=O)C2CC2)cn1
  -26% | >57

(listing goes on)
SMILES	LT uptake inh	SmPrx2 inh
CCOC(=O)C1=C(C)OC(N)=C(C(=O)OCC)C1c1ccncc1 (centres undefined)	14%	x
CCc1nc2nc(C)cc(Nc3cccc(C(F)(F)F)c3)n2n1	5%	>57
O=C(NCCc1ccccc1)C1c2ccccc2C(=O)N1C1CC1 (centres undefined)	-16%	>57
COC(=O)/C=c1\sc2n(c1=O)C(C)=CC(C)(C)N=2	34%	>57
CC12CCC(C(=O)NCc3ccco3)(OC1=O)C2(C)C (centres undefined)	5%	x
O=P(/C(=N/O)N1CCOCC1)(N1CCOCC1)N1CCOCC1	13%	>57
CCCn1cnc2cc(NCc3cccc(OC)c3O)ccc21	9%	>57
Cn1c(=O)oc2cc(S(=O)(=O)N3CCC(C(=O)N4CCN(c5ccccc5)CC4)CC3)ccc21	-3%	>57
CCCCCCCCCCCCCC(=O)O[C@H](CC(=O)O)C[N+](C)(C)C	-9%	>57
COCc1cc(=O)n2[nH]c(C)cc2n1	-4%	>57
CCSc1ccccc1C(=O)Nc1cccc(OC)c1	-23%	>57
NCCNC(=S)S	u	>57
CCOc1cc(N2CCOCC2)c(OCC)cc1NC(=O)Cc1cn2ccsc2n1	-9%	>57
Cc1cccc(C)c1N1CCN(S(=O)(=O)c2ccc(F)cc2)CC1	-14%	>57
C=CCn1c(SCC(=O)NCC(=O)OCC)nnc1-c1cccc(OC)c1	-1%	>57

Two entries drawn at random from the list so far:
SMILES	LT uptake inh	SmPrx2 inh
CCOC(=O)C1=C(C)OC(N)=C(C(=O)OCC)C1c1ccncc1 (centres undefined)	14%	x
CCCCCCCCCCCCCC(=O)O[C@H](CC(=O)O)C[N+](C)(C)C	-9%	>57

The list continues:
SMILES	LT uptake inh	SmPrx2 inh
O=C1CN(C(=O)c2cnccn2)c2ccccc2N1	11%	>57
Cc1noc(C(=O)NCc2cccnc2)c1Cl	-1%	>57
CCOC(=O)CC(C#N)c1c[nH]c2ccccc12 (centres undefined)	7%	>57
O=c1cc[nH]c2cc(C(F)(F)F)ccc12	0%	>57
O=S(=O)(Nc1nccs1)c1ccc(NS(=O)(=O)c2cccs2)cc1	u	>57
O=C(CSc1nnc(-c2ccccn2)n1Cc1ccccc1)NC1CCCC1	-1%	>57
COc1cc2c(cc1OC)C(c1ccc(N)cc1)=NNC(=O)C2	u	>57
CCN(CC)C(=O)CSc1nnc(CCNC(=O)OC(C)(C)C)o1	-9%	>57
OCC1CO1 (centres undefined)	1%	x
COc1ccc(C2C(C(=O)N3CCN(C)CC3)c3ccccc3C(=O)N2C2CCCCC2)cc1 (centres undefined)	11%	>57
COc1cc(C(=O)OCCCN2CCCN(CCCOC(=O)c3cc(OC)c(OC)c(OC)c3)CC2)cc(OC)c1OC	u	>57&>57&>57
CCOC(=O)N1CCC(NC(=O)c2cnn3c2NC(c2ccco2)CC3C(F)(F)F)CC1 (centres undefined)	u	>57
Nc1nnc(SCc2cccc(C(F)(F)F)c2)s1	u	x
O=C(C1CCN(S(=O)(=O)c2cccnc2)CC1)N1CCN(c2ccccc2Cl)CC1	-27%	>57
CCOC(=O)c1ccc2c(c1)C1C=CCC1C(C(=O)O)N2 (centres undefined)	-23%	>57
CCC(=NCCN1CCNCC1)C1=C(O)CC(C)(C)CC1=O	11%	>57
c1ccc(C(Cc2nc(-c3cccnc3)no2)c2ccccc2)cc1	u	>57
Cc1cccc(CNc2nc(-c3c(C)noc3C)nc3ccccc23)c1	u	u
Cc1noc(C)c1C(=O)N1CCC2(CCCN(c3ncccn3)C2)CC1	u	>57
O=S(=O)(Cc1ccccc1)N1CCN(Cc2ccccc2)CC1	0%	>57
CCCN(CCC)C(=O)CCS(=O)(=O)c1cccc2nsnc12	u	>57
CSc1nc(SCC(=O)NCc2ccco2)c2c3c(sc2n1)CN(C)CC3	4%	>57
O=C(c1nc2ncccn2n1)N1CCc2ccccc2C1	-1%	>57
Cc1cc(C)nc(NC(=O)CSc2nn(C)c(=S)s2)n1	-14%	>57
Cc1ccc(NC(=O)CCNS(=O)(=O)c2ccc3c(c2)oc(=O)n3C)cc1	4%	>57
Cc1nc(NCc2ccc3c(c2)OCO3)c2oc3ccccc3c2n1	u	>57
CC(=O)Nc1ccc(N/C=C/C(=O)C(C)(C)C)cc1	-6%	>57
CCNC(=O)CCc1nc(-c2ccc(C(C)(C)C)cc2)no1	-7%	>57
CCOC(=O)c1sc(NC(=O)c2ccc(C)o2)nc1C	-25%	x
C1=C(N2CCOCC2)/C(=C/c2nc3ccccc3[nH]2)CC1	8%	x
CCOC(=O)N1CCC(NC(=O)c2cc(C(=O)Nc3cccc(OC)c3)ccc2CO)CC1	13%	>57
Brc1ccccc1-c1nnc(CSc2nnnn2-c2ccccc2)o1	u	u
O=C(O)c1cnn2c1NC(c1ccc(F)cc1)CC2C(F)(F)F (centres undefined)	x	>57
CCn1c(SCC(=O)Nc2ccc(OCc3ccccc3)cc2)nnc1-c1ccco1	3%	>57
Cc1cc(NC(=O)CSc2ccc3nnc(-c4ccccc4)n3n2)no1	9%	>57
Cn1nccc1C(=O)Nn1cnnc1	u	>57
COc1ccc(C2=NOC(C(=O)NC(C)(C)C)C2)cc1 (centres undefined)	-21%	>57
CCn1c(COc2ccc(C)cc2)nnc1SCC(=O)Nc1cc(OC)ccc1OC	-12%	>57
O=C(/C=C\Nc1ccccn1)c1ccccc1	-10%	x
Cn1c(SCC(=O)NCc2ccco2)nc2ccccc2c1=O	-13%	>57
Cc1cc(NC(=O)COC(=O)CCCOc2ccc(Cl)cc2C)no1	-13%	>57
O=C(O)c1ccc(CSCc2ccccc2F)o1	-4%	>57
O=C(NCCc1c[nH]c2ccccc12)c1cc(S(=O)(=O)N2CCCCC2)ccc1N1CCOCC1	u	>57
Cn1cc(-c2nc3cnc(N4CCNCC4)nc3n(CCc3ccccc3)c2=O)c2ccccc21	u	>57
COc1cc2c(c(OC)c1OC)-c1ccc(O)c(=O)cc1[C@H](N)CC2	-6%[3.58 µM]	>57
COc1cc(C(=O)NC2CC3CCCC(C2)N3CC(=O)Nc2ccccc2)cc(OC)c1OC (centres undefined)	0%	>57
COc1ccc(O[C@H]2C=C[C@@H](c3ccccc3)O[C@H]2COC(=O)CC/C(C)=N\O[C@@H](C)c2cc(-c3c(C)cc(C)cc3C)no2)cc1	-1%[8 µM]	x
CCC1CCCCN1C(=O)COc1cc(=O)n(C)c2ccccc12 (centres undefined)	-6%	>57
CCCc1cc(C(=O)Nc2nccs2)cs1	-17%	>57
CCOC(=O)c1cccc(NC(=O)Nc2cc(OC)ccc2OC)c1	9%	>57
CCOC(=O)CSc1nc2sc3c(c2c(=O)[nH]1)CCCC3	26%	>57
COc1ccc2nc(NCCCNC(=O)c3cc(OC)c(OC)c(OC)c3)c(C#N)cc2c1	u	>57
CCCCCn1c(N2CCN(c3cccc(Cl)c3)CC2)nc2c1c(=O)[nH]c(=O)n2C	15%	>57
CCOC(=O)c1cc(-c2ccncc2)nc2c1c(C)nn2-c1ccccn1	-3%	>57
CC(=O)OC[C@H]1O[C@@H](O/N=C2/[C@H]3O[C@@H]3[C@@H](O)[C@H]3[C@H]2CCn2c(=O)n(-c4ccccc4)c(=O)n23)[C@H](OC(C)=O)[C@@H](OC(C)=O)[C@@H]1OC(C)=O	8%[8 µM]	x
Cc1cc(NC(=O)COC(=O)CCC(=O)c2ccc(F)cc2)no1	u	>57
CC(C)NC(=O)N1CC[C@@]2(CCCN(C(=O)c3cccc(F)c3)C2)C1	-3%	>57
O=S(=O)(c1ccc(Br)s1)N1CCN(c2ccccc2)CC1	-29%	>57
CS(=O)(=O)NCc1ccc(C(=O)NCCOc2ccccc2)cc1	12%	>57
Cc1sc2ncnc(SCC(=O)NC(=O)NCc3ccco3)c2c1C	-8%	>57
Further compounds
SMILES	LT uptake inh	SmPrx2 inh
CCc1nnc(NC(=O)CCC(=O)N2CCN(C3CCCCC3)CC2)s1	3%	>57
CCN1CCN(C(=O)CCCCCn2c(=O)[nH]c3cc(C(=O)OC)ccc3c2=O)CC1	-1%	>57
Cc1c(NC(=O)Nc2cccc(Cl)c2)c(=O)n(-c2ccccc2)n1C	-11%	x
N=C(N)SCCON1C(=O)c2ccccc2C1=O	-3%[8 µM]	>57
Cn1c(SCCCC(=O)c2ccccc2)nnc1-c1ccncc1	-9%	>57
COc1ccc(P2(=O)Nc3ccccc3N2)cc1	-1%	>57
CCCCn1c(NCCO)nc2ccccc21	1%	>57
COc1cc(NC(=O)NCCN2CCN(c3ccc(Cl)cc3)CC2)ccc1C	-1%	>57
CCCc1cc(C(N)=O)c(NC(=O)c2ccoc2C)s1	u	>57
COc1cccc(-c2nnc3sc(-c4ccccn4)nn23)c1	6%	>57
Cc1ccc(-c2nc3ccccc3[nH]2)cc1NC(=O)c1ccco1	u	>57
Cn1ccc(C(=O)OCC(=O)c2ccccc2)n1	u	>57
CCOC(=O)c1cnn(-c2cc(C)c3cc(C)cc(C)c3n2)c1N	-7%	>57
O=C1CN(CC(=O)N2CCOCC2)c2ccccc2O1	x	>57
O=C(CSc1nc2ccccc2o1)N1CCN(C(=O)c2ccco2)CC1	2%	>57
CC(=O)N1CCN(c2ccc(Oc3nnnn3-c3ccccc3)cc2)CC1	-3%	>57
CCC(=O)Nc1ccc2c(c1)ncn2-c1ccccc1OC	1%	>57
Cc1csc(NC(=O)CSc2nnc3ncccn23)n1	4%	>57
COc1ccc2[nH]cc(CCNc3ncncc3-c3cccnc3)c2c1	-3%	>57
Cc1onc(-c2ccccc2)c1C(=O)Nc1nc2c(s1)CCCC2	-8%	>57
COc1ccc(-n2c(SCC(=O)c3c(N)n(C)c(=O)n(C)c3=O)nc3ccccc32)cc1	-1%	>57
CCCc1ccc(-c2ccc(C(=O)O)cc2)nc1	-2%	>57
O=C(c1cccc(C(=O)N2CCN(c3ccccc3F)CC2)n1)N1CCN(c2ccccc2F)CC1	0%	>57
C=C(C)C(N)=O	-3%	x

This is a subset. The share of hits here may be higher or lower than overall.
